Screening data deposited in PubChem BioAssay by Broad Institute.
T. gondii HeLa: Toxoplasma gondii ME49Luc growth in HeLa cells, luciferase, no IFN-y, primary screen (AID 1259421). 6,400 tested, 9.6% active. activity change, negative = inhibition, %. T. gondii ME49Luc in HeLa, luciferase, 72 h, no IFN-y; hits give low values; reference of the scale and settings of repeat entries not given here; many of its hits are not listed in these tables;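 active means activity change below -70%; inconclusive means fit judged invalid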;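 further: about 20 µM from a 10 mM stock diluted 500-fold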
Active calls of the source: *; ? = inconclusive; & = joins results of further samples; ! = repeats disagree. A portion of the library, so the mix of outcomes need not match the whole.

no. | Molecule | T. gondii HeLa
1 | CCOC(=O)C1=C(C)NC(=S)NC1c1cccc(O)c1 (stereo not drawn) | 3&4
2 | C=C1C[C@@H]2COC(=O)[C@]2(Cc2ccc3ccccc3c2)C1 | 20
3 | CNCC[C@H](Oc1cccc2ccccc12)c1cccs1 | 21
4 | Cc1onc(-c2ccccc2)c1C(=O)N[C@@H]1C(=O)N2[C@@H](C(=O)O)C(C)(C)S[C@@H]12 | 3
5 | O=P(O)(O)C(Sc1ccc(Cl)cc1)P(=O)(O)O | 0&5
6 | Cc1c[nH]c(=O)n(CCCN2CCN(c3ccccc3OCC(F)(F)F)CC2)c1=O | 3&3
7 | C[C@]12C=CC(=O)C=C1CC[C@@H]1[C@@H]2C(=O)C[C@@]2(C)[C@H]1CC[C@]2(O)C(=O)CO | -1&3
8 | Nc1c(CC(=O)O)cccc1C(=O)c1ccc(Br)cc1 | 0&11
9 | Cc1nccc2[nH]c(=O)ccc12 | 4
10 | CCCCCCCCCCCCCCCCCCCCCCO | 8
11 | COc1ccc(-c2oc3ccccc3c(=O)c2O)cc1OC | 18
12 | N[C@@H]1CCN(O)C1=O | 15
13 | COC(=O)[C@H]1[C@H]2C[C@@H]3c4[nH]c5ccccc5c4CCN3C[C@H]2C[C@@H](OC(=O)c2cc(OC)c(OC)c(OC)c2)[C@@H]1OC | -3
14 | CCOC(=O)[C@H](CCc1ccccc1)N[C@H](C)C(=O)N1C2CCCCC2C[C@H]1C(=O)O (stereo partly drawn) | 13&14
15 | COc1nccc(-c2c(-c3ccc(F)cc3)ncn2C2CCNCC2)n1 | -65
16 | COc1ccc(C(C#N)C(C)C)cc1OC (stereo not drawn) | 21
17 | COc1c(OC)c2occc2c2oc(=O)ccc12 | 9
18 | c1cnc(N2CCN(Cc3ccc4c(c3)OCO4)CC2)nc1 | 8
19 | NCC(=O)N1C[C@H](NC(=O)c2ccccc2)C[C@H]1C(=O)O | 18
20 | Cc1nnc(C(=O)NC(C)(C)c2nc(C(=O)NCc3ccc(F)cc3)c(O)c(=O)n2C)o1 | -4
21 | NCC(=O)Nc1ccc(-n2nc(C(F)(F)F)cc2-c2ccc3c(ccc4ccccc43)c2)cc1 | -75*
22 | CCOCCn1c(C2CCN(CCc3ccc(C(C)(C)C(=O)O)cc3)CC2)nc2ccccc21 | 21
23 | CCN(CC)CCCC(C)Nc1nc(C)cc(Nc2ccc3nc(C)cc(N)c3c2)n1 (stereo not drawn) | -15
24 | CCCCc1ccc2nc(NC(=O)OC)[nH]c2c1 | -41&-43
25 | CC(C)Oc1ccc2c(=O)c(-c3ccccc3)coc2c1 | 398

Of the compounds above, 2 contain a CF3 group.
no. | Molecule | T. gondii HeLa
6 | Cc1c[nH]c(=O)n(CCCN2CCN(c3ccccc3OCC(F)(F)F)CC2)c1=O | 3&3
21 | NCC(=O)Nc1ccc(-n2nc(C(F)(F)F)cc2-c2ccc3c(ccc4ccccc43)c2)cc1 | -75*

Single entries from the list:
T. gondii HeLa result of Cc1onc(-c2ccccc2)c1C(=O)N[C@@H]1C(=O)N2[C@@H](C(=O)O)C(C)(C)S[C@@H]12 reads 3
T. gondii HeLa result of Cc1c[nH]c(=O)n(CCCN2CCN(c3ccccc3OCC(F)(F)F)CC2)c1=O reads 3&3
T. gondii HeLa result of NCC(=O)N1C[C@H](NC(=O)c2ccccc2)C[C@H]1C(=O)O reads 18

The listing picks up; the seven compounds before the break are reprinted first.
no. | Molecule | T. gondii HeLa
19 | NCC(=O)N1C[C@H](NC(=O)c2ccccc2)C[C@H]1C(=O)O | 18
20 | Cc1nnc(C(=O)NC(C)(C)c2nc(C(=O)NCc3ccc(F)cc3)c(O)c(=O)n2C)o1 | -4
21 | NCC(=O)Nc1ccc(-n2nc(C(F)(F)F)cc2-c2ccc3c(ccc4ccccc43)c2)cc1 | -75*
22 | CCOCCn1c(C2CCN(CCc3ccc(C(C)(C)C(=O)O)cc3)CC2)nc2ccccc21 | 21
23 | CCN(CC)CCCC(C)Nc1nc(C)cc(Nc2ccc3nc(C)cc(N)c3c2)n1 (stereo not drawn) | -15
24 | CCCCc1ccc2nc(NC(=O)OC)[nH]c2c1 | -41&-43
25 | CC(C)Oc1ccc2c(=O)c(-c3ccccc3)coc2c1 | 398
26 | CCCN(CCC)CCc1cccc2c1CC(=O)N2 | 7
27 | Oc1ccc(Cl)c2c1CCC2 | -9
28 | CCCC(O)C(CC)CO (stereo not drawn) | 6
29 | CC(=O)NCC(=O)N1[C@@H]2CC[C@H]1c1ccc(Nc3ncc(C(F)(F)F)c(NC4CCC4)n3)cc12 | -74*
30 | CC(N)C(=O)OC(C)(C)Cc1ccc(Cl)cc1 (stereo not drawn) | 6&19
31 | Cc1ccnc(NC(=O)C(C)c2cccc(C(=O)c3ccccc3)c2)c1 (stereo not drawn) | 48
32 | CC(C)NCC(O)c1ccc(NS(C)(=O)=O)cc1 (stereo not drawn) | 8&16
33 | O=S(=O)(O)CCSSCCS(=O)(=O)O | 5
34 | N[C@H](Cc1cnc[nH]1)C(=O)O | 2
35 | CN1Cc2c(C(=O)OC(C)(C)C)ncn2-c2ccsc2C1=O | 13&4
36 | Nc1ccccc1NC(=O)c1ccc(CNc2nccc(-c3cccnc3)n2)cc1 | -90*
37 | OC(CN1CCNCC1)Cn1c2ccc(Br)cc2c2cc(Br)ccc21 (stereo not drawn) | -62
38 | O=c1cc(-c2ccccc2)oc2cccc(O)c12 | 21
39 | CC(=O)[C@H]1CC[C@H]2[C@@H]3C=CC4=CC(=O)CC[C@@]4(C)[C@@H]3CC[C@]12C | -11
40 | CN1CCN(CC(=O)N2c3ccccc3C(=O)Nc3cccnc32)CC1 | -11&16
41 | N=C(N)S/C=C\C(=O)O | 28
42 | O=C(O)CC(S)C(=O)O (stereo not drawn) | 11
43 | O=C(O)CCc1c[nH]c2ccccc12 | 17
44 | COC(=O)[C@H](Cc1ccc([N+](=O)[O-])cc1)NC(=O)c1cccc2ccccc12 | 4
45 | C#C[C@]1(O)CCC2C3CCc4cc(OC5CCCC5)ccc4C3CC[C@@]21C (stereo partly drawn) | 33
46 | C[C@@](Cc1ccc(O)c(O)c1)(NN)C(=O)O | 3
47 | C[N+](C)(C)CCOC(N)=O | 1
48 | C#Cc1cnc2[nH]c(=O)n(C(CC)CC)c2n1 | 0
49 | COC(=O)Nc1nc2ccc(SC(C)C)cc2[nH]1 | -33&-47
50 | CCC[C@H](NC(=O)[C@@H]1[C@H]2CCC[C@H]2CN1C(=O)[C@@H](NC(=O)[C@@H](NC(=O)c1cnccn1)C1CCCCC1)C(C)(C)C)C(=O)C(=O)NC1CC1 | -72*

Additional results:
no. | Molecule | T. gondii HeLa
51 | O=C(OC1C[C@H]2CC[C@@H](C1)[N+]21CCCC1)C(O)(c1ccccc1)c1ccccc1 (stereo partly drawn) | 13
52 | Fc1ccc(-c2c3cccc(C(F)(F)F)c3nn2Cc2ccc(F)cc2Cl)cc1 | 40
53 | COc1ccccc1OC(=O)CNC(=O)Cc1ccc(C(=O)c2ccc(C)cc2)n1C | 16
54 | COc1ccccc1OCC(O)CNC(C)C (stereo not drawn) | 4&17
55 | CCCCC[C@H](O)/C=C/C=C\C/C=C\C/C=C\CCCC(=O)O | -38
56 | c1ccc([C@H]2CN3CCSC3=N2)cc1 | 9
57 | O=c1cc(-c2ccccc2)oc2cc(O)cc(O)c12 | 2&175
58 | OCC1OC2OC3C(CO)OC(OC4C(CO)OC(OC5C(CO)OC(OC6C(CO)OC(OC7C(CO)OC(OC8C(CO)OC(OC1C(O)C2O)C(O)C8O)C(O)C7O)C(O)C6O)C(O)C5O)C(O)C4O)C(O)C3O (stereo not drawn) | 1
59 | CC(C)(C)NCC(O)c1cc(O)cc(O)c1 (stereo not drawn) | -2&8
60 | CCOC(=O)Nc1nc2ccccc2[nH]1 | 16&30
61 | FC(F)(F)c1cc(CO[C@H]2CCCN[C@H]2c2ccccc2)cc(C(F)(F)F)c1 | -90*!
62 | O=C(NCc1ccc(Oc2ccccc2)cc1)c1nc(-c2cc(Br)c(O)c(Br)c2)no1 | 18
63 | O=C(c1c(O)c2ccc(Cl)cc2[nH]c1=O)C1CC1 | 5&3
64 | CC1(C)CCC(C)(C)c2cc(NC(=O)c3ccc(C(=O)O)cc3)ccc21 | -57
65 | COc1ccccc1S(=O)(=O)Nc1ccc2c(c1)CN(C)C(=O)N2 | 28
66 | C[C@H](N)C(=O)N[C@@H](CCC(N)=O)C(=O)O | 4
67 | O=C(/C=C/c1cccnc1)NCCCCC1CCN(C(=O)c2ccccc2)CC1 | -6
68 | CC(=O)N(CC(O)CN(C(C)=O)c1c(I)c(C(=O)NCC(O)CO)c(I)c(C(=O)NCC(O)CO)c1I)c1c(I)c(C(=O)NCC(O)CO)c(I)c(C(=O)NCC(O)CO)c1I (stereo not drawn) | 11
69 | Oc1ccc(-c2c(-c3ccccc3)nn3c(C(F)(F)F)cc(C(F)(F)F)nc23)cc1 | 0&-13
70 | CN(C)CCC(c1ccc(Cl)cc1)c1ccccn1 (stereo not drawn) | 3&6
71 | Cc1noc(COc2ccccc2OCC(O)CNC(C)(C)C)n1 (stereo not drawn) | 11
72 | O=C(CCc1ccc(O)cc1)c1c(O)cc(O)cc1O | -3&10
73 | CCCN(C/C=C/I)C1CCc2cccc(O)c2C1 (stereo not drawn) | 19&10
74 | COc1cccc(OC)c1-c1cc(C(=O)NC2(C(=O)O)C3CC4CC(C3)CC2C4)nn1-c1ccc(C(=O)N(C)CCCN(C)C)cc1C(C)C (stereo not drawn) | -2
75 | CC(C)CC(NC(=O)N1CCCCCC1)C(=O)NC(Cc1cn(C)c2ccccc12)C(=O)NC(Cc1ccccn1)C(=O)O (stereo not drawn) | 6

Remaining list, next part:
no. | Molecule | T. gondii HeLa
76 | CCOC(=O)[C@H](CCc1ccccc1)N[C@H]1CCCN2CCC[C@H](C(=O)O)N2C1=O | -5
77 | CC(C)(O)CC[C@@H](O)[C@](C)(O)[C@@H]1CC[C@@]2(O)C3=CC(=O)[C@@H]4C[C@@H](O)[C@@H](O)C[C@]4(C)[C@@H]3CC[C@]12C | 16
78 | NC(=O)C1CSSCCC(=O)NC(CCCCN=C(N)N)C(=O)NCC(=O)NC(CC(=O)O)C(=O)NC(Cc2c[nH]c3ccccc23)C(=O)N2CCCC2C(=O)N1 (stereo not drawn) | 2
79 | CCCCCCCCCCCCCC(=O)OC(C)C | 13
80 | C[C@H]1OC(O)[C@H](O)[C@H](O)[C@H]1O (stereo partly drawn) | -1
81 | COc1ccc(C(=O)c2ccc(O)cc2)c(O)c1O | 0
82 | OCc1ccc(-c2ccc(-c3ccc(CO)s3)o2)s1 | 99&9
83 | Cn1cc(C(=O)[C@@H]2CCc3nc[nH]c3C2)c2ccccc21 | 3
84 | COc1ccc2[nH]c(I)c(CCNC(C)=O)c2c1 | -1&15
85 | COc1ccc2c(c1)OCC(Cc1ccc(OC)c(O)c1)C2=O (stereo not drawn) | -61
86 | CN(C)Cc1c(C(=O)NCCOc2ccc(C(=O)NO)cc2)oc2ccccc12 | -79*
87 | CCC(C)(C)N=C(NC#N)Nc1cccnc1 | 9
88 | Cc1c[nH]c2ccccc12 | -2
89 | COc1cc2nccc(Oc3ccc(NC(=O)Nc4ccc(F)cc4F)c(F)c3)c2cc1OC | -38
90 | CC1(C)O[C@@H]2CC3C4C[C@H](F)C5=CC(=O)CC[C@]5(C)C4[C@@H](O)C[C@]3(C)[C@]2(C(=O)CO)O1 (stereo partly drawn) | -3&-1
91 | COc1cc([C@@H]2c3cc4c(cc3[C@H](O)[C@H]3COC(=O)[C@H]23)OCO4)cc(OC)c1OC | ?
92 | Clc1cc(Cl)c(OCC#CI)cc1Cl | 4
93 | Cc1nc(C#Cc2ccnc(Cl)c2)c(C)n1-c1ccc(OC(F)(F)F)cc1 | -37
94 | Cc1ccccc1CN1C2=NCCN2C(=O)C2=C1CCN(Cc1ccccc1)C2 | -3
95 | C[C@@H]1O[C@@H](OC[C@H]2O[C@@H](Oc3c(-c4ccc(O)c(O)c4)oc4cc(O)cc(O)c4c3=O)[C@H](O)[C@@H](O)[C@@H]2O)[C@H](O)[C@H](O)[C@H]1O | -6&-2
96 | COc1cc(/C=C(/C#N)C(N)=O)cc(CSc2nc3ccccc3s2)c1O | 1
97 | CN1C(=O)OC(C)(C)C1=O | 5
98 | CN(C)CCOC1=Cc2ccccc2Sc2ccc(Cl)cc21 | -34
99 | N[C@@]1(C(=O)O)CS(=O)(=O)[C@H]2[C@H](C(=O)O)[C@H]21 | 9
100 | C[C@]12CCC(=O)C=C1CCC1C2[C@@H](O)C[C@@]2(C)C1CC[C@]2(O)C(=O)COC(=O)CCC(=O)O (stereo partly drawn) | -4&-5

Exported field by field: entries from further up
81	COc1ccc(C(=O)c2ccc(O)cc2)c(O)c1O
  T. gondii HeLa = 0
82	OCc1ccc(-c2ccc(-c3ccc(CO)s3)o2)s1
  T. gondii HeLa = 99&9
83	Cn1cc(C(=O)[C@@H]2CCc3nc[nH]c3C2)c2ccccc21
  T. gondii HeLa = 3
84	COc1ccc2[nH]c(I)c(CCNC(C)=O)c2c1
  T. gondii HeLa = -1&15
